Screens (PubChem)
RanGTP-Impb inh: inhibitors of RanGTP-importin-beta interaction, primary screen, biochemical, FRET, CFP-Ran, YFP-importin-beta, homogeneous; inhibition, % (test concentration not listed); cell-free CFP-Ran/YFP-importin-beta FRET ratio; Ran GTPase (GTP-bound) - importin-beta complex; actives 1.1% (n = 300,000);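 active = most replicates above 15%; inconclusive = exactly half above 15%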;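 note: 0% = DMSO wells and 100% = Ran loaded with GDP instead of GTP; wells of about 40 µL received 100 nL stock; the first replicate is given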
LANA-H2A inh: blockers of LANA interaction with H2A/H2B – biochemical, FP readout, HTS, primary screen | actives 0.6% (n = 320,000) | AID 2629, 2010 | cell-free LANA-H2A/H2B peptide, fluorescence polarization | inhibition, % (no concentration beside the values); in the data active = inhibition mostly above about 10%, no sharp cut-off; inactive = mostly below about 6.7%;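 note: stock transfer was 7.5 nL into about 10 µL; 0% = median of vehicle wells and 100% = median of positive control wells; one replicate is shown; the record names a cut of 25% in any replicate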
Beta2AR agonist: beta2AR agonists driving receptor internalization, primary screen, cell-based, FAP fluorogen, flow cytometry; actives 0.43% (n = 340,000); Beta-2 adrenergic receptor (Homo sapiens), P07550; response, % (test concentration not listed); Am2.2-beta2AR cells; reference of the scale not given here;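 active = response above a set limit, near 3 SD of response in nonfluorescent compounds, cut at about 42% in these data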;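 note: stock transfer was 100 nL into about 11 µL; a reference agonist was the positive control; negative values mostly stem from fluorescent compounds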
Target sequence (P07550 whole entry, looked up): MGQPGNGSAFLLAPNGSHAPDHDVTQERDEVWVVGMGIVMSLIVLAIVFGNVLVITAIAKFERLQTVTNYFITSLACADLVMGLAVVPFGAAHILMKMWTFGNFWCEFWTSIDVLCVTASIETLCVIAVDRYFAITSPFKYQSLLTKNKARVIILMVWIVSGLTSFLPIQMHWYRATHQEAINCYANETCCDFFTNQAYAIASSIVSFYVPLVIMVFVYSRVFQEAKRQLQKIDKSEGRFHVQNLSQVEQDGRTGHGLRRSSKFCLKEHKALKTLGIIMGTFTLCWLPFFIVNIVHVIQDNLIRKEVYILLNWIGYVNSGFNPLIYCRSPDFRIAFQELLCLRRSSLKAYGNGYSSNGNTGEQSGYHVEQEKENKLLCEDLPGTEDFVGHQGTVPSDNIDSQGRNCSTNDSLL
Beta cell apopt: inhibitors of cytokine-induced beta cell apoptosis, primary screen, luminescence; INS-1E cytokine-induced death, ATP luminescence, 48 h; percent of positive-control rescue, neutral wells zero; protection from apoptosis, % (test concentration not listed); actives 0.8% (n = 300,000); AID 435005, 2010;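 active = all replicates at 75% or more, or half of them and the mean; inconclusive = half reach 75% but not the mean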;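 note: 0% = cytokine-treated negative control wells and 100% = positive control rescue; higher means more ATP so stronger rescue from cytokine killing; wells of about 40 µL received 100 nL stock; the first replicate is given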
Calb FLC: C. albicans growth inhibition with fluconazole, primary screen, CaCi-2 strain, Alamar Blue fluorescence | C. albicans CaCi-2 (fluconazole-resistant clinical isolate) + fluconazole, 48 h | growth inhibition, % (no concentration beside the values) | actives 0.57% (n = 300,000) | AID 1979, 2009;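 active = most replicates above 75%; inconclusive = exactly half above 75%; inactive = most below 75%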;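 note: all wells also contain fluconazole at 8 µg/ml as a sub-toxic cotreatment; 0% = median of DMSO wells and 100% = median of geldanamycin control wells; wells of about 8 µL received 7.5 nL stock; the first replicate is given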
T cruzi inh: inhibitors of intracellular T. cruzi growth, primary screen, luminescence, NIH3T3 host cells; T. cruzi beta-gal in NIH3T3, 90 h; inhibition, % (no concentration beside the values); actives 1.4% (n = 300,000); AID 1885, 2009;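 active = mean inhibition across valid replicates above about 55%, limit read from the data; inconclusive = mean below that limit but half or more replicates reach it; inactive = mean below it, under half of replicates reach it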;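 note: signal also drops with host cell toxicity which is not excluded here; 0% = plate median of DMSO wells and 100% = zero luminescence signal; higher percent means less beta-gal luminescence so fewer parasites; stock transfer was 50 nL into about 50 µL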
UCH37 inh: inhibitors of human UCH37 deubiquitinase, primary screen, biochemical, Ub-AMC cleavage, fluorescence; Ubiquitin carboxyl-terminal hydrolase isozyme L5 (Homo sapiens), Q9Y5K5; actives 0.33% (n = 330,000); inhibition, % (test concentration not listed); purified proteasome/UCH37;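 active = mean of two replicates above 20%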;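 note: 0% = compound-free wells with enzyme and 100% = wells lacking proteasome; stock transfer was 100 nL into about 20 µL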
Target sequence (Q9Y5K5 whole entry, looked up): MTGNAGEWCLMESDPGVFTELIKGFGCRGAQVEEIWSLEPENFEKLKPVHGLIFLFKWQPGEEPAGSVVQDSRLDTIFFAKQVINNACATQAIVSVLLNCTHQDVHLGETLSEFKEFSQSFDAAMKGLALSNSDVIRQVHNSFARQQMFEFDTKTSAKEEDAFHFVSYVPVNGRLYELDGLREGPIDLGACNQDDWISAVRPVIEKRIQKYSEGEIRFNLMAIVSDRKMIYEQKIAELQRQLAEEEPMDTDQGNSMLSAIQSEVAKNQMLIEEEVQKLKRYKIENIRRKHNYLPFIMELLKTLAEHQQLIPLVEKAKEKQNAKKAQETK
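Signal – fluorescence, ex 355 nm, em 460 nm · System – Proteasome-bound UCH37 · Input – 0.15 nM proteasome as dispensed · Timing – 30 min preincubation with enzyme, 25 min cleavage at room temperature · Read-out basis – percent inhibition of cleavage signal versus uninhibited and no-proteasome wells · Medium – Tris-HCl pH 7.4 with ATP-MgCl2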
A1 inh: caspase 3/7 activation in MEF A1-2A-BIM cells, primary screen, A1 inhibitor project, cell-based, luminescence, HTS; Caspase-Glo 3/7 luminescence, 3 h; percent of clofoctol response, vehicle zero; caspase activation, % (no concentration beside the values); actives 0.066% (n = 330,000); AID 2462, 2010;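 active = over half of replicate activation scores above 10%, or exactly half above 10 with the replicate mean above 10; inconclusive = replicate mean below 10 yet half the replicates above 10; inactive = over half of replicates below 10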;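 note: wells of about 30 µL received 50 nL stock; many hits fall short of the cut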
* marks the source's active call; other numbers are inactive results; ? = inconclusive; nt = no result given; & = joins results of further samples.

SMILES	RanGTP-Impb inh	LANA-H2A inh	Beta2AR agonist	Beta cell apopt	Calb FLC	T cruzi inh	UCH37 inh	A1 inh
CC(Oc1cc(-c2ccccc2)cc2ccccc12)C(=O)N1CCOCC1 (stereo unspecified)	2.4	1.4	2	nt	-6	28	-2.0	-0.1
CCOc1ccc(C(=S)N2CCOCC2)cc1OCC	-5.7	0.1	7	-6	8	-22	2.2	0.3
O=c1c2c(n3cnnc3n1-c1ccccc1)-c1ccccc1CC21CCCCC1	-5.0	-2.1	-13	-1	-25	11	-3.8	0.2
Cc1ccc(N2CCN(C(=O)c3ccccc3)CC2)c(C)c1	-1.5	0.7	0	1	3	1	6.2	0.2
Cc1ccc(-c2noc(CCCC(=O)N3CCOCC3)n2)cc1	?	-0.9	2	-10	-6	-6	2.5	1.0
CCOc1ccc(-c2nnc(SCC(=O)Nc3cc(C)on3)o2)cc1	-1.7	0.7	-6	0	57	29	1.7	-1.0
CC(C)OC(=O)Nc1ccc2c(c1)N(C(=O)CCN1CCOCC1)c1ccccc1CC2	-1.9	-5.8	3	-2	3	0	4.4	0.1
COc1ccccc1NC(=O)c1cc2c(CO)cnc(C)c2oc1=Nc1ccccc1	5.4	-1.0	7	27	7	5	3.9	0.3
COc1ccc(NC(=O)C2CCN(c3cc(-c4ccccc4)nc4ncnn34)CC2)cc1OC	nt	4.0	4	nt	nt	nt	5.2	-0.4
CC(C)(C)c1ccc(Oc2ccc(NC(=O)c3cccs3)cn2)cc1	-0.4	-3.3	6	18	-3	14	0.4	-0.7
Cc1ccc2nc(SCc3cn4c(C)cc(C)nc4n3)[nH]c2c1	3.4	-1.9	nt	nt	?	16	0.9	0.4
CC1Oc2ccccc2N(Cc2ccc(F)cc2)C1=O (stereo unspecified)	0.2	-11	9	-2	1	-4	1.3	-0.7
O=c1c(-c2ccc3c(c2)OCCO3)coc2cc(O)cc(O)c12	1.3	-3.8	3	-2	-2	5	6.2	-2.1
Cc1ccc(S(=O)(=O)N2CCC(=O)N(C(CO)C(C)C)CC2)cc1 (stereo unspecified)	-0.2	-6.5	3	-6	-6	-20	-1.8	1.3
COc1ccc(C(=O)NCc2nnc(SCC(=O)c3ccccc3)n2C)cc1	5.7	0.8	-10	-7	-3	-10	0.0	0.6
O=C(CSc1ccc(-c2ccco2)nn1)NCc1ccc2c(c1)OCO2	-2.7	1.0	-1	-3	-6	1	1.0	-1.8
COc1ccc(NC(=O)COC(=O)[C@@H]2CCCN2S(=O)(=O)c2ccccc2F)c(OC)c1	-1.3	-1.7	19	1	6	-18	5.2	0.6
COc1cc(C(=O)N/N=C\c2ccccc2)c([N+](=O)[O-])c(OC)c1OC	0.0	-0.2	6	-2	-2	-1	nt	1.1
COc1ccc(NC(=O)/C(C#N)=C\c2cc(C)n(-c3ccc4c(c3)OCO4)c2C)cc1	-3.5	-3.4	10	21	1	3	-0.9	0.6
O=C(CSCc1ccccc1)N1CCN(c2cccc(C(F)(F)F)c2)CC1	5.9	-0.5	0	-6	-1	6	2.0	-0.5
O=C(NCc1ccco1)C1CCCN(S(=O)(=O)c2ccccc2)C1 (stereo unspecified)	3.3	-1.9	6	-6	16	1	5.3	1.4
CCN(CC)C(=O)c1c(NC(=O)c2ccccc2)sc(C)c1C	-1.5	5.7	1	0	7	-2	-1.1	0.2
CCC(=O)Nc1nc2nc(C)cc(=O)n2[nH]1	1.9	0.8	-2	-1	-1	-16	nt	1.1
COc1cccc(C2=NOC(C(=O)N3CCN(Cc4ccccc4)CC3)C2)c1OC (stereo unspecified)	-2.9	0.6	-4	-1	12	9	-0.3	-0.4
O=S(=O)(Nc1nc2ccccc2nc1-[n+]1cccc(N=C([O-])c2ccccc2Cl)c1)c1ccccc1	24*	2.6	nt	-6	3	-13	nt	-0.3
CCc1nonc1NC(=O)COc1cc(C)c(Cl)c(C)c1	3.7	5.0	2	-4	-1	-28	2.4	-0.1
COc1ccc(-c2csc(Nc3cccc(C)n3)n2)cc1	0.6	-0.3	-5	nt	9	9	3.1	-6.3
Cc1ccnc2nc(C(=O)OCC(=O)NC3CCC(C)CC3)nn12 (stereo unspecified)	nt	3.8	2	-4	nt	nt	0.2	-0.8
Cc1ccc(NC(=S)N2CCN(S(C)(=O)=O)CC2)cc1C	nt	-2.2	-3	-4	-14	nt	1.6	?
CCCCCNC(=O)c1ccc2c(c1)ncn2-c1ccc(OC)cc1	0.5	-2.0	3	2	30	2	2.8	0.1
CCCCC12CN3CC(C)(CN(C1)C3c1ccc([N+](=O)[O-])o1)C2=O (stereo unspecified)	2.5	-2.2	-3	nt	-2	17	3.7	-0.3
CCCCCN(C(=O)CCC(=O)OCCOc1ccccc1Cl)c1c(N)n(CCCC)c(=O)[nH]c1=O	-0.6	-1.7	3	1	3	-3	0.8	-0.2
COc1ccc(O)c(CN2CCC(n3nccc3NC(=O)C3CCCC3)CC2)c1	-2.0	-1.4	-6	-2	-2	1	-0.7	0.2
CC(C)CCN(C(=O)Nc1ccc(Cl)cc1)C1CCN(C(C)C)CC1	-2.0	-4.1	-3	-5	-2	38	1.3	0.0
O=C(O)C(Cc1ccc(Cl)cc1)Sc1nc2ccccc2[nH]1 (stereo unspecified)	-2.4	1.8	-17	-3	-4	5	-0.1	0.1
Cc1ccc(S(=O)(=O)NCc2c(-c3ccccc3)c3cc(Cl)ccc3[nH]c2=O)cc1	-1.2	-2.3	-3	2	4	-15	-2.0	0.1
Cc1ccc(/C=C/C(=O)c2c(C)cc(C)[nH]c2=O)cc1	2.7	nt	11	nt	27	-3	6.1	nt
COc1ccccc1-c1nnc2sc(-c3cnccn3)nn12	0.6	2.6	4	-5	-4	2	4.1	-0.5
CN1CC(=O)N=C1N	-1.5&2.6	2.4&2.8	8&-10	-4&-3	-9&-12	11&3	0.0&2.8	2.0&-0.1
O=C(c1ccco1)N1CCN(c2ccc(F)cc2)CC1	-5.6	9.5	-2	2	-17	3	3.2	-2.7
COc1cc(C(=O)N2CCC(O)(c3ccccc3)CC2)cc(OC)c1OC	8.5	4.7	2	-3	1	-1	0.8	0.1
O=[N+]([O-])c1ccc(N2CCN(c3ccc(O)cc3)CC2)c(Cl)c1	-5.1	1.5	0	2	-8	13	1.1	-0.2
Cc1cccc(N2CCN(C(=O)Cc3cn(C)c4ccccc34)CC2)c1C	3.8	1.2	0	nt	2	13	6.2	0.2
O=C(OCc1nc2ccsc2c(=O)[nH]1)c1ccc(Cl)s1	3.1	-0.4	-5	2	1	13	-2.8	0.3
COc1ccc(C(=O)N/N=C(\C)c2ccc(NC(=O)Cc3ccccc3)cc2)c(OC)c1	-1.9	-7.5	0	-4	0	-16	nt	0.7
CCCc1cc(=O)n2nc(N3CCC(C(=O)N4CCN(c5ccc(OC)cc5)CC4)CC3)sc2n1	-0.6	6.6	-8	41	-22	-14	2.4	-0.3
O=C(Nc1ccc2c(c1)OCO2)N1CCN(C(=O)C2CCCO2)CC1 (stereo unspecified)	2.4	1.3	1	0	4	-1	0.0	1.1
Cn1c(-c2ccc(F)cc2)cnc1NCc1cccc(F)c1	2.6	-0.7	-11	-2	-13	-14	3.9	0.4
COc1ccccc1CNC(=O)COn1nnc2ccc(S(=O)(=O)N3CCOCC3)cc21	4.9	1.6	-3	nt	1	4	0.9	0.2
Cc1ccc(S(=O)(=O)N2CCN(C(C)C(=O)N3CCCc4ccccc43)CC2)cc1 (stereo unspecified)	-0.9	1.2	0	-4	-6	19	20	0.4
CCCOCCOC(=O)c1[nH]c2c(c1C)C(=O)CC(c1cc(OC)ccc1OC)C2 (stereo unspecified)	4.1	-3.8	19	42	5	37	0.8	0.8
CCCCN(C(=O)CSCC(=O)Nc1ccc(C)cc1)c1c(N)n(Cc2ccccc2)c(=O)[nH]c1=O	nt	0.5	-7	-6	4	-1	1.7	-0.5
O=C(NC1CCCC1)C(c1ccc(F)cc1)N(Cc1ccccc1Cl)C(=O)CCl (stereo unspecified)	-0.4	2.2	10	-6	-1	-10	3.0	-0.4
Cc1ccccc1NC(=O)COC(=O)/C=C/c1cccc(C(F)(F)F)c1	-1.6	2.2	4	-4	-7	-5	7.1	-1.0
Cc1ccc(C)c(N2C(=O)CS/C2=N\NC(=O)c2ccccc2Cl)c1	6.1	-0.6	-6	0	2	-11	nt	0.0
CC(=O)OCCc1c(C)nc2nc[nH]n2c1=O	?	2.7	3	-3	7	-5	0.0	0.8
CCOc1ccccc1C1C(C#N)=C(N)N(N(C)C)C2=C1C(=O)CCC2 (stereo unspecified)	-0.9	0.6	-7	-13	-5	16	2.7	-0.2

Sorted by molar mass (high to low): some entries from above.
SMILES	RanGTP-Impb inh	LANA-H2A inh	Beta2AR agonist	Beta cell apopt	Calb FLC	T cruzi inh	UCH37 inh	A1 inh
CCCCN(C(=O)CSCC(=O)Nc1ccc(C)cc1)c1c(N)n(Cc2ccccc2)c(=O)[nH]c1=O	nt	0.5	-7	-6	4	-1	1.7	-0.5
CCCc1cc(=O)n2nc(N3CCC(C(=O)N4CCN(c5ccc(OC)cc5)CC4)CC3)sc2n1	-0.6	6.6	-8	41	-22	-14	2.4	-0.3
COc1ccccc1CNC(=O)COn1nnc2ccc(S(=O)(=O)N3CCOCC3)cc21	4.9	1.6	-3	nt	1	4	0.9	0.2
O=C(NC1CCCC1)C(c1ccc(F)cc1)N(Cc1ccccc1Cl)C(=O)CCl (stereo unspecified)	-0.4	2.2	10	-6	-1	-10	3.0	-0.4
COc1ccc(C(=O)N/N=C(\C)c2ccc(NC(=O)Cc3ccccc3)cc2)c(OC)c1	-1.9	-7.5	0	-4	0	-16	nt	0.7
Cc1ccc(S(=O)(=O)N2CCN(C(C)C(=O)N3CCCc4ccccc43)CC2)cc1 (stereo unspecified)	-0.9	1.2	0	-4	-6	19	20	0.4
Cc1ccc(C)c(N2C(=O)CS/C2=N\NC(=O)c2ccccc2Cl)c1	6.1	-0.6	-6	0	2	-11	nt	0.0
O=C(Nc1ccc2c(c1)OCO2)N1CCN(C(=O)C2CCCO2)CC1 (stereo unspecified)	2.4	1.3	1	0	4	-1	0.0	1.1
Cn1c(-c2ccc(F)cc2)cnc1NCc1cccc(F)c1	2.6	-0.7	-11	-2	-13	-14	3.9	0.4
CC(=O)OCCc1c(C)nc2nc[nH]n2c1=O	?	2.7	3	-3	7	-5	0.0	0.8
